NPYLR7 ag: activates Aedes aegypti NPYLR7 receptor; activation, % at 10 µM; 0.15% of 270,000 active; HEK293T NPYLR7/Galpha15, GCaMP6s calcium fluorescence; AID 1259423; in the data active = activation above about 40%;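 also: 0% = vehicle and 100% = reference agonist at the receptor; some compounds past the cut are filed as inactive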
NPYLR7 ag max-min: recorded beside NPYLR7 ag, whose call it bears; activation, %; measured here: Max-Min RFU normalised activation; some inactives read as strong as hits;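 span of the calcium signal over five minutes; 0% = vehicle and 100% = native peptide agonist; compound fluorescence can raise it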
An asterisk follows results filed as active; & = joins results of further samples.

SMILES | NPYLR7 ag | NPYLR7 ag max-min
CCNC(=O)N(Cc1cccc(C(F)(F)F)c1)CC1CC(c2ccccc2C)=NO1 (stereo unspecified) | -5 | 6
Cc1cc(C)c(-c2nnc(NC(=O)CSc3nnc(N)s3)s2)c(C)c1 | -4 | -11
O=c1c(Cl)c(NC(c2ccccc2)c2cccs2)cnn1-c1ccc(C(F)(F)F)cn1 (stereo unspecified) | 11 | 13
O=C(NCCCNC(=O)[C@H]1CCCN1S(=O)(=O)/C=C/c1ccccc1)c1ccccc1 | 4 | 7
CCN(CC)Cc1cnc2c(C(=O)Nc3ccc(-n4cncn4)cc3)cnn2c1 | 5 | 6
CC1C(=O)NCCN1CCC(=O)Nc1cccc(Br)c1 (stereo unspecified) | 6 | 2
COc1cccc(CN(CC2CC(c3ccccc3C)=NO2)C(=O)Nc2ccccc2OC)c1 (stereo unspecified) | 4 | 8
CCOc1ccc(C2=C(C(=O)CC)Sc3nnc(CC)n3N2C(=O)CC)cc1 | 5 | 3
CC(C)c1ccccc1N1C(=O)CSC1c1ccccc1NC(=O)c1ccc(Cl)c(Cl)c1 (stereo unspecified) | 0 | 10
COc1cc2c(cc1CN(C)Cc1nc3ccc(F)cc3[nH]1)OCO2 | -3 | -2
CC(C)C(=O)NC(NC(=S)Nc1ccc(S(N)(=O)=O)cc1)C(Cl)(Cl)Cl (stereo unspecified) | 1 | -6
CC(C)CNc1nc(-c2ccc(S(=O)(=O)N3CCCC3)cc2)cs1 | -4 | -6
COc1ccccc1CN1C(=O)C(Cc2ccccc2)ON=C1C (stereo unspecified) | 2 | 0
COCCN(Cc1ccc2c(c1)OCO2)Cc1ccc(C(O)(c2cccc(F)c2)c2cccc(F)c2)o1 | 1 | 4
CN1CCN(N=Cc2ccc(F)cc2)CC1 | 4 | 2
c1cc2c(cc1Oc1nc(CN3CCOCC3)nc3sc4c(c13)CCC4)CCC2 | -1 | 0
C=CC[C@@H]1CC=C[C@@H](C)N1C(=O)c1cc(OC)nc(OC)n1 | -4 | -4
COc1cc(=O)n(-c2ccc(F)cc2)nc1C(=O)N1CCc2ccccc21 | 4 | 1
CC1CCCCC1N=C1NN=C(c2ccc3[nH]c(=O)oc3c2)CS1 (stereo unspecified) | 6 | 1
CC(C)Oc1ncccc1CNC(=O)N1CCc2ccccc21 | -3 | -3
COc1ccccc1-c1noc(Cn2nnc(-c3cccc(C(F)(F)F)c3)n2)n1 | 2 | 6
O=C(NCc1ccccc1)N1CCn2cccc2C1c1ccccc1 (stereo unspecified) | 10 | 7
CN(C)c1ccc(C=NNc2ncnc3sc4c(c23)CCCC4)cc1 | -5 | -9
CC(C(=O)Nc1ccc(-c2ncn[nH]2)cc1)N1CCc2ccccc2C1 (stereo unspecified) | -2 | -2
Cc1ccnc(NC(=O)CN2C(=O)c3ccccc3C2=O)c1 | -9 | -12

Structures listed so far that contain a Cl atom:
SMILES | NPYLR7 ag | NPYLR7 ag max-min
O=c1c(Cl)c(NC(c2ccccc2)c2cccs2)cnn1-c1ccc(C(F)(F)F)cn1 (stereo unspecified) | 11 | 13
CC(C)c1ccccc1N1C(=O)CSC1c1ccccc1NC(=O)c1ccc(Cl)c(Cl)c1 (stereo unspecified) | 0 | 10
CC(C)C(=O)NC(NC(=S)Nc1ccc(S(N)(=O)=O)cc1)C(Cl)(Cl)Cl (stereo unspecified) | 1 | -6

Compound profiles, from the list above. Order of screens: NPYLR7 ag	NPYLR7 ag max-min
`CN(C)c1ccc(C=NNc2ncnc3sc4c(c23)CCCC4)cc1` reads -5	-9
`Cc1ccnc(NC(=O)CN2C(=O)c3ccccc3C2=O)c1` reads -9	-12
`C=CC[C@@H]1CC=C[C@@H](C)N1C(=O)c1cc(OC)nc(OC)n1` reads -4	-4
`CN1CCN(N=Cc2ccc(F)cc2)CC1` reads 4	2
`CC(C)C(=O)NC(NC(=S)Nc1ccc(S(N)(=O)=O)cc1)C(Cl)(Cl)Cl` (stereo unspecified) reads 1	-6

The list continues.
SMILES | NPYLR7 ag | NPYLR7 ag max-min
CCC(C)N(Cc1ccncc1)C(=O)c1cccc(=O)[nH]1 (stereo unspecified) | 11 | 8
COc1ccccc1N1CCN(C(=O)c2cc(-c3ccccc3F)nc3cc(-c4ccccc4)nn23)CC1 | 3&17 | 6&28
Cc1nnc(SC(C)c2nc3scc(-c4cccs4)c3c(=O)[nH]2)n1C1CC1 (stereo unspecified) | 2 | 1
C=C(C)Cn1c(SCC(=O)N/N=C\c2cc(Br)ccc2O)nnc1-c1ccc(Br)cc1 | -6 | -5
O=C(O)c1cccc(CC2CCN(c3ncnc4c3CCC4)C2)c1 (stereo unspecified) | 13 | 8
CCN1C(=O)SC(Nc2cccc(C)c2)C1=O (stereo unspecified) | 4 | 5
CCCCc1ccc(C(=O)N2CCN(C(C(=O)Nc3cccc(Cl)c3)C3CCCC3)CC2)cc1 (stereo unspecified) | -8 | 29
O=C(N1CCN(c2ncnc3c2nnn3-c2ccc(F)cc2)CC1)C12CC3CC(CC(C3)C1)C2 | -1 | -9
CCc1nc(CC)n(Cc2nc(C)cs2)n1 | 21 | 7
CC(C)(C)OC(=O)N1CCCC1C1CCCCN1CC(=O)NC(=O)NC1CC1 (stereo unspecified) | 1 | -2
CCC(c1nc2ccccc2c(=O)n1-c1ccc(Cl)cc1)N(CCN(C)C)C(=O)Nc1ccc(C(F)(F)F)cc1 (stereo unspecified) | -10 | -14
CCCn1nc(C)c(CNC(=O)c2cnnn2-c2ccccc2)c1C | 11 | 6
CCOc1ccccc1C(=O)NCc1ccc(-c2ncc(-c3ccc(OC)cc3)[nH]2)cc1 | -2 | -7
CC1=C(c2ccc(C)cc2)S(=O)(=O)NC1=NC(C)CCc1ccccc1 (stereo unspecified) | -3 | -3
Cc1c(C(=O)N2CCN(C3c4ccccc4CCc4ccccc43)CC2)oc2ccccc12 | 30 | 20
CC(=O)N1CCC(CN2CCOC(c3n[nH]c(C)n3)C2)CC1 (stereo unspecified) | 0 | -1
COc1ccccc1-n1cc(C(=O)N2CCCC2Cn2cccn2)cn1 (stereo unspecified) | 0 | -1
O=C1O[C@H]([C@@H](O)CO)C(O)=C1O | -7 | -13
N#CCSc1nc2sc3c(c2c(=O)n1Cc1ccco1)CCC3 | 0 | -1
O=C(CSc1nnc(NC(=O)C23CC4CC(CC(C4)C2)C3)s1)Nc1nccs1 | -7 | -14
CN1CCc2nc(SCc3ccccc3C(F)(F)F)c(C#N)cc2C1 | 2 | 0
O=S(=O)(c1ccccc1)c1cnc2ccccc2c1Nc1ccc2c(c1)OCCO2 | 5 | 2
CCCn1c(C(=O)Nc2cccnc2)cc2c(=O)n(C)c(=O)n(C)c21 | -1 | -2
CCc1ccc(N2CC(C(=O)Nc3ccc(NC(=O)C(C)C)cc3)CC2=O)cc1 (stereo unspecified) | 6 | 0
CC1=C(C(=O)OC(C)C)C(c2coc3ccccc3c2=O)C2=C(CCCC2=O)N1 (stereo unspecified) | -6 | -14

(listing goes on)
SMILES | NPYLR7 ag | NPYLR7 ag max-min
COc1ccc(CC(=O)NCCc2cc3c(C)ccc(C)c3[nH]c2=O)cc1OC | 3 | 32
O=C1OC(c2ccc(Cl)cc2)=NC1=Cc1ccc(F)c(F)c1 | 4 | 2
O=c1[nH]ncc(N2CCOC(c3ccc(Br)cc3)C2)c1Cl (stereo unspecified) | 2 | 1
COc1ccc(F)c(-c2cc(C)cnc2-n2cnnc2)c1 | -1 | -5
CCc1cnc(C)nc1N1C[C@H]2CC=CC[C@H]2C1 | 0 | -2
Cc1ccc2cc(CCNC(=O)Cc3cccc4ccccc34)c(=O)[nH]c2c1 | 15 | 17
CC(C)(C)NC(=O)N1CCC2(CC1)NC(=O)c1ccc(Cl)cc1N2 | 1 | 9
O=C(CCc1cnccn1)N1CCOC(CC(c2ccccc2)c2ccccc2)C1 (stereo unspecified) | -1 | -5
CN(C)C1(CNc2nc(CN3CCOCC3)nc3sc4c(c23)CCC4)CCCCC1 | 1 | -1
CCC(CC)(CCO)CNC(=O)C1CCCOC1 (stereo unspecified) | -1 | -4
CCc1ccc(CN(C)Cc2c(C(=O)N3CCOCC3)nc3c(C)cccn23)nc1 | 6 | 6
C[C@H]1COc2c(C3(N)CC3)c(F)cc3c(=O)c(C(=O)O)cn1c23 | -5&-11 | 1&-15
CCOC(=O)C1(NC(C)=O)CC(C)(CBr)OC1=O (stereo unspecified) | 2 | 30
Cc1nn(C)cc1C(C)Nc1ccc(C(=O)Nc2ccccc2)nn1 (stereo unspecified) | 3 | 592
CCN(CC)CCCC(C)NC(=O)c1cc(-c2cccc(OC)c2)nc2cc(C(C)(C)C)nn12 (stereo unspecified) | -1 | 2
COc1cc(OC)cc(C2SCCN2C(=O)c2ccc([N+](=O)[O-])cc2)c1 (stereo unspecified) | 10 | 25
O=C(c1coc(CN(CCc2c[nH]c3ccccc23)Cc2ccc(F)cc2)n1)N1CCCC1 | 23 | 35
CN1CCN([C@@H]2CCN(Cc3ccc4cc(F)ccc4n3)C[C@H]2O)CC1 | -2 | -5
O=C(O)c1cnc(Nc2ccc(F)c(F)c2)c(Cl)c1 | 0&-2 | -2&-6
CC(N=C1SCCN1C(=O)c1ccccc1C(F)(F)F)c1ccccc1 (stereo unspecified) | -1 | -3
CCOC(=O)C(O)(CC(=O)Nc1cc(F)ccc1C)C(F)(F)F (stereo unspecified) | -5 | 15
CCn1c(C)cc(O)c(C(=O)Nc2cccc(Cl)c2)c1=O | -1 | -2
COCCN(CC(=O)N(CCc1c[nH]c2ccccc12)Cc1ccccc1OC)S(=O)(=O)c1ccc2ccccc2c1 | -1 | 0
Cc1[nH]oc(=O)c1N=Nc1ccc2[nH]c(=O)[nH]c2c1 | 1 | 7
Cc1nc(N2CCOCC2)[nH]c(=O)c1CCC(=O)N(C)Cc1ccc2c(c1)OCO2 | 0 | -3

An excerpt of these results, tab-delimited.
Molecule	NPYLR7 ag	NPYLR7 ag max-min
O=C1OC(c2ccc(Cl)cc2)=NC1=Cc1ccc(F)c(F)c1	4	2
O=C(c1coc(CN(CCc2c[nH]c3ccccc23)Cc2ccc(F)cc2)n1)N1CCCC1	23	35
CCC(CC)(CCO)CNC(=O)C1CCCOC1 (stereo unspecified)	-1	-4
COc1cc(OC)cc(C2SCCN2C(=O)c2ccc([N+](=O)[O-])cc2)c1 (stereo unspecified)	10	25
CCn1c(C)cc(O)c(C(=O)Nc2cccc(Cl)c2)c1=O	-1	-2

New compounds follow
SMILES | NPYLR7 ag | NPYLR7 ag max-min
Cc1nn(Cc2ccccn2)c(=O)c2c1cnn2-c1ccccc1 | 4 | 0
Cc1ccc(NC(=O)C2CCCCC2)c(NC(=O)[C@@H]2CCCN2C)c1 | 16 | 10
Fc1ccccc1-c1nnc(-c2ccc3c(c2)OCO3)o1 | 6 | 5
CCOc1cc2c(cc1-c1nccn1Cc1cnn(C)c1C)CCC2 | -5 | -7
O=C(O)CCc1nnc(SCC(=O)Nc2ccc(Cl)c(Cl)c2)[nH]c1=O | 7 | 4
CC(C)COc1ccc(NS(=O)(=O)c2cccnc2Cl)cc1Cl | 11 | 9
Cc1nc(-c2ccccc2)sc1C(=O)Nc1c(C)nc2scc(C)n2c1=O | 2 | 0
CC(C)Oc1ccc(C(=O)Nc2c3c(nn2C(C)(C)C)CS(=O)C3)cc1 (stereo unspecified) | 1 | -2
COc1ccc(OC)c(-c2cccc(-c3cccc(N)c3)n2)c1 | 12 | 23
Cc1ccc(C(=O)N2C(=S)C(c3ccc(F)cc3)=NC23CCN(C)CC3)cc1 | 0 | 15
O=C1Oc2ccccc2C1=Cc1c(Cl)cccc1Cl | 2 | 3
O=C(c1cc(-c2csc(NC3CCCC3)n2)c[nH]1)N1CCCC1 | 1&5 | 5&4
C=CCN1C(=O)C(=Cc2ccc(O)cc2)SC1=S | 45 | 39
CCCS(=O)(=O)Nc1cc(NC(=O)C2CCOC2)c(F)cc1F (stereo unspecified) | 14 | 10
CCOC(=O)N1CCN(C(c2ccc(Cl)cc2Cl)C2Sc3nc(CC)nn3C2=O)CC1 (stereo unspecified) | -1 | -6
Cc1nc2c(OCc3ccc(F)cc3)cccn2c1N(C)C(=O)CCC1CCCC1 | -11 | -17
CC(C)N1C(=O)COCc2cc(-c3cnn(C)c3)ccc21 | 6 | 2
Cn1cccc1C=CC(=O)OCC(=O)NC1(C#N)CCCC1 | 13 | 26
O=C(NCc1ccc(F)cc1)N1CCC2(CC1)C(=O)NCN2c1ccccc1 | 1 | 1
COc1ccc(C(C)=O)cc1Cn1c(C)c(C(=O)NCC(C)C)sc1=O | -10 | -7
CCOC(=O)c1cnc(-c2ccc(C(F)(F)F)cc2)nc1NCCc1cccc(Cl)c1 | 25 | 20
COc1ccc(Cl)c2c1NCCC2 | 3 | 1
C=CCN(Cc1csc(COc2ccc(C)c(C)c2)n1)C(C)=O | 3 | 0
Cc1ccccc1Oc1cc(-c2ccccc2)nc(SCc2cccc(C#N)c2)n1 | 8 | 28
CC(c1ccncc1)N(C)Cc1ccc(-n2cccn2)cc1 (stereo unspecified) | 13 | 5

Next compounds
SMILES | NPYLR7 ag | NPYLR7 ag max-min
CNC(=O)CCN(C)C1CCN(c2cccc(C)c2C)CC1 | -3 | -3
O=C(COc1cc(Cl)ccc1Cl)Nc1ccc2c(c1)C(=O)c1ccccc1C2=O | 4 | -1
COCCN(Cc1cc(NC(=O)COC)ccc1N(C)C)C(=O)C(C)C | -4 | 2
CCOCCCNC(=O)c1cc(NC(=O)Nc2ccc(Br)cc2)ccc1N1CCCC1 | 6 | 24
CC(=O)N1CCn2nc(C(=O)NCC3(c4ccccc4)CCOCC3)cc2C1 | 11 | -2
CC(c1nc2ccccc2s1)N(C)C(=O)c1cccnc1N1CCCC1 (stereo unspecified) | 6 | 1
CC(C)(C)NCC(O)COCCC12CC3CC(CC(C3)C1)C2 (stereo unspecified) | 11 | 14
COc1ccc(-c2cc(-c3ccccc3)[o+]c(-c3ccccc3)c2)cc1 | -5 | -9
CC1CCCN(S(=O)(=O)c2ccc3c(c2)nc(SCc2nc4ccccc4[nH]2)n3CC2CCCO2)C1 (stereo unspecified) | 5 | 4
Cc1nc(CNC(=O)C(=O)c2cccs2)cs1 | -2 | -5
CCN1C(=O)NC(c2ccc(C)cc2C)C2=C1CN(C(CC(C)C)C(=O)Nc1ccccc1F)C2=O (stereo unspecified) | 4 | 11
CCCOc1ccccc1/C=C1\SC(N)=NC1=O | -2 | -6

Compound activity (PubChem)

Only part of the results is shown (hit frequency here may not be typical).
